High-throughput results (PubChem)
Biofilm kill mix: mixtures killing C. albicans biofilm. hit rate 0.02% among 120,000. C. albicans biofilm persisters + clotrimazole, fluorescence viability; primary screen in compound mixtures of four per well. inhibition, % at 7.6 µM. AID 1242;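 active = inhibition above 30.3% in the primary screen of four-compound pools, then above 30% when the compound was retested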;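 also: compounds exposed to preformed 24 h biofilms for 48 h; the number belongs to the whole pool; some results filed as inactive read as strong as hits; inactives centre near 12; 0% = biofilm with clotrimazole alone and 100% = kill control; retested singly at about 60 µM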
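Test system: C. albicans biofilms. Buffer or medium: RPMI/MOPS medium, pH 7.0. Timing: 48 h compound exposure at 37 °C. Technique: Alamar Blue fluorescence. Evaluation: percent inhibition of biofilm viability.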
* hit, by the source's call. The list is partial (hit frequency here may not be typical).

entry | compound | Biofilm kill mix
1 | O=C(CCCN1C(=O)/C(=C/c2ccccc2Cl)SC1=S)Nc1ccccn1 | 22
2 | COc1ccc(NC(=O)Cn2nc([N+](=O)[O-])c(Cl)c2C)cc1OC | 6
3 | COc1ccccc1NC(=O)COC(=O)/C=C/c1ccc2c(c1)OCO2 | -7
4 | O=C(c1cc2cc(Cl)cc(Cl)c2oc1=O)N1CCOCC1 | -7
5 | Cc1ccc(NC(=O)CN(C)CC(=O)Nc2ccccc2-c2ccccc2)cc1 | 8
6 | CC(C)(C)c1ccc(C(=O)O)c(C(=O)c2ccc(C(=O)O)cc2)c1 | 16
7 | CCS(=O)(=O)N1N=C(c2cccs2)CC1c1cc2cc(C)ccc2nc1Cl (configuration not stated) | 32
8 | O=C(O)Cc1ccc(-c2ccccc2)cc1 | 11
9 | CCOC1=C/C(=C/c2c(N)n3oc(C)cc3nc2=O)C=CC1=O | 11
10 | CN(C)CC1CCCCC1OC(=O)c1ccc(Br)cc1 (configuration not stated) | 4
11 | O=C(COC(=O)c1ccc2c(c1)OCO2)Nc1ncc(Cl)cc1Cl | 13
12 | O=C(CNC(=O)c1ccccc1)Nc1ccsc1C(=O)O | 2
13 | COc1ccc(C(=O)OCC(=O)NC(C)(C)C)cc1[N+](=O)[O-] | 11
14 | COc1ccc(/C(O)=C2\C(=O)C(=O)N(CCN3CCOCC3)C2c2ccccc2OC)cc1 (configuration not stated) | 3
15 | COc1ccc(CNC(=O)C2CCCN2S(=O)(=O)c2ccc(F)cc2)cc1 (configuration not stated) | -1
16 | Cc1nc(CNS(=O)(=O)c2cccs2)cs1 | 14
17 | COC(=O)c1cc(OC)c(OC)cc1NC(=S)Nc1cc(Cl)ccc1OC | 17
18 | O=C(Nc1ccccc1)Nc1ccc(Br)cc1F | 15
19 | CC(C)c1ccc(NCCC(=O)c2cccs2)cc1 | 9
20 | CCC(C)(C)NC(=O)CN(C(=O)CCC(=O)Nc1cc(C)ccn1)c1ccc2c(c1)OCCO2 | 2
21 | O=C(COC(=O)c1ccncc1)c1ccc(Br)cc1 | 25
22 | O=C(CSc1nnnn1-c1ccc(Cl)cc1)NNC(=O)c1ccc([N+](=O)[O-])cc1 | 17
23 | O=C(NCCc1ccncc1)Nc1ccc(F)cc1 | 12
24 | O=[N+]([O-])c1ccc(NC(=S)N2CCOCC2)cc1 | 10
25 | CCOC(=O)c1c(C)[nH]c(C(=O)N2CCN(c3ccc(OC)cc3)CC2)c1C | 6
26 | Cc1cc(C(=O)Cn2cnc3cc([N+](=O)[O-])ccc3c2=O)c(C)n1CC1CCCO1 (configuration not stated) | 13
27 | COc1ccc(C(CNC(=O)c2cncc(Br)c2)N(C)C)cc1 (configuration not stated) | 7
28 | O=C(NCC(=O)N(Cc1ccccc1)C(C(=O)NC1CCCCC1)c1ccco1)c1ccco1 (configuration not stated) | 6
29 | CCN(c1ccccc1)S(=O)(=O)c1ccc(Cl)c(NC(=O)COC(=O)c2cc(O)c3ccccc3c2O)c1 | 14
30 | CN(Cc1ccccn1)Cc1cn(Cc2ccccc2)nc1-c1ccc2c(c1)OCO2 | 12
31 | COc1ccc(C(=O)NC(=S)Nc2ccc(NC(=O)c3ccco3)cc2)cc1[N+](=O)[O-] | 10
32 | COc1cccc(CNC(=O)C2CCC(CNc3nc(=S)[nH]c4ccccc34)CC2)c1 (configuration not stated) | 2
33 | CC(=O)Nc1ccc(/C(C)=N/NC(=O)CN(c2ccccc2Br)S(C)(=O)=O)cc1 | 7
34 | Cc1cc(F)ccc1S(=O)(=O)Nc1ncnc2sccc12 | 13
35 | CC(C)OC(=O)c1cccc(NC(=O)c2ccccc2)c1 | 8
36 | COc1ccccc1-c1ccc(SCC(=O)N2CCOCC2)nn1 | 32
37 | O=C(O)CC1(CC(=O)Nc2ccc3ccccc3n2)CCCCC1 | 20
38 | COc1ccc(Br)cc1CN(C)CC(=O)Nc1cccc(S(N)(=O)=O)c1 | 9
39 | COC(=O)c1ccccc1NC(=O)C(=O)NCC1CCCO1 (configuration not stated) | 10
40 | CCOC1OC(=O)C(Cl)=C1Nc1cc(C)ccc1C (configuration not stated) | 12
41 | O=C(O)c1cc(C(F)(F)F)nc2ccccc12 | 6
42 | CCC(C)(C)c1ccc(OCCCC[n+]2cccc(C)c2)c(C(C)(C)CC)c1 | 13
43 | CCOc1ccc(-c2nnc3ccc(SCC(=O)Nc4cc(C)on4)nn23)cc1 | 5
44 | Cc1ccc(C)c(OCCn2c(=O)c3c(ncn3C3CCCC3)n(Cc3ccccc3)c2=O)c1 | 8
45 | Cc1ccccc1OCCn1cc(/C=C(\C#N)C(=O)NCc2ccco2)c2ccccc21 | 13
46 | Cc1cccc(C)c1NC(=O)c1cccc(COc2cc(Cl)ccc2Cl)c1 | 13
47 | CCNC(=O)CC1SC(=Nc2ccc(C)cc2)NC1=O (configuration not stated) | 12
48 | Cc1onc(-c2ccccc2)c1CNS(=O)(=O)c1ccc(F)cc1F | 13
49 | Cc1cc(C)c(S(=O)(=O)N2CCCOC2CNC(=O)C(=O)NCc2cccs2)c(C)c1 (configuration not stated) | 11
50 | Cc1ccc(NC(=S)NC2CCN(Cc3ccccc3)CC2)cc1 | 16

Continuation.
entry | compound | Biofilm kill mix
51 | CC(C)CNC(=O)c1oc2ccccc2c1COc1ccccc1 | 9
52 | CCOC(=O)CCCSc1nnc(CCCCCN2C(=O)c3cccc4cccc(c34)C2=O)o1 | 3
53 | Cc1cc2c(C)nc(N/N=C/c3ccccc3)nc2o1 | 15
54 | COc1ccc(C(=O)NCc2nnc(SCC(=O)Nc3nc4ccc(C)cc4s3)o2)cc1OC | 9
55 | CCOC(=O)C1=C(CC)Nc2ccccc2N=C1N | 8
56 | O=C(CNC(=O)C1CCCCC1)OCc1cc(=O)oc2ccc3ccccc3c12 | 3
57 | Cc1c(N=C(N)/N=C(\N)Nc2ccccc2)c(=O)n(-c2ccccc2)n1C | 3
58 | O=C(COC(=O)CNC(=O)c1ccccc1F)Nc1cccnc1Cl | 13
59 | Nn1c(SCC(=O)Nc2cccc(S(N)(=O)=O)c2)nnc1C1CC1 | 7
60 | CNC(=O)c1[nH]cnc1C(=O)N[C@@H](CC(C)C)C(=O)OC(C)(C)C | 19
61 | COc1ccc(NC(=O)[C@@H](NC(N)=O)C(C)C)cc1Cl | 10
62 | O=[N+]([O-])c1ccc(Cl)c(CN2CCC(O)CC2)c1 | 7
63 | CN(C)c1nc(N(C)C)nc(N(C#N)CCOc2ccccc2)n1 | 11
64 | COC(=O)c1ccc(C(=O)OC)c(NC(=O)COC(=O)c2ccc(OC)c(OC)c2OC)c1 | 12
65 | CN(C)S(=O)(=O)c1ccc(C(=O)Nc2nc(-c3ccccc3)c(C(=O)c3ccccc3)s2)cc1 | 8
66 | Cc1cc(SCC(=O)Nc2ccc(O)cc2)n2nc(C)c(-c3ccccc3)c2n1 | 11
67 | Cc1ccc(N(C(C)C(=O)Nc2cccc(N(C)S(C)(=O)=O)c2)S(C)(=O)=O)cc1 (configuration not stated) | 14
68 | CCOc1ccc2c(c1)C(N(CCN1CCOCC1)C(=S)Nc1ccccc1OC)CC(C)(C)O2 (configuration not stated) | 17
69 | Cc1cc(C)nc(NC(=O)CSc2nn(-c3ccccc3)c(=S)s2)n1 | 23
70 | O=C(COC(=O)c1ccc(Br)cc1)NCc1ccccc1 | 20
71 | CCOC(=O)CS(=O)(=O)c1nc(-c2ccccc2)cc(C(F)(F)F)n1 | 13
72 | COc1cccc(NC(=S)N(CCN(C)C)C(C)c2cccnc2)c1 (configuration not stated) | 11
73 | O=C1/C(=C/Nc2cccc([N+](=O)[O-])c2)CCc2ccccc21 | 12
74 | CCOc1ccc(C2C(C(=O)c3cccs3)=C(O)C(=O)N2Cc2cccnc2)cc1OC (configuration not stated) | 14
75 | Cc1cccc(Nc2nc(-c3ccncc3)cs2)c1 | 7
76 | COc1ccc(-n2nc([N+](=O)[O-])c(=NCc3ccc4c(c3)OCO4)n2O)cc1 | 15
77 | S=C(NCC1CCCO1)N1CCN(c2cccc(Cl)c2)CC1 (configuration not stated) | 23
78 | O=C(Nc1ccc([N+](=O)[O-])cc1)C1(c2ccccc2)CCOCC1 | 8
79 | OC(CCCN1CCC(O)(c2ccc(Cl)cc2)CC1)c1ccc(F)cc1 (configuration not stated) | -4
80 | CC(O)c1nc2ccccc2n1CCCCOc1ccccc1 (configuration not stated) | 22
81 | CC1=CC(C)C2(CO)COC(c3cccnc3)C1C2C (configuration not stated) | 11
82 | CCCCOc1ccc(N2C(=O)CC(N(CCc3ccccc3)C(=O)/C=C/C(=O)O)C2=O)cc1 (configuration not stated) | 10
83 | CN(Cc1cc(=O)n2ccsc2n1)C1CCCCC1 | -6
84 | COc1cc(/C=C2/C(=O)NN(c3cccc(F)c3)C2=O)ccc1OC(=O)c1ccco1 | -2
85 | COc1cc(C2C3=C(CC(C)(C)CC3=O)Nc3c2c(=O)[nH]c(=O)n3Cc2ccccc2)ccc1O (configuration not stated) | 13
86 | N=c1c2c(ncn1CCCO)Oc1cc(O)ccc1C2c1ccccc1 (configuration not stated) | 15
87 | O=C(CCN1CCCC1)c1cccs1 | 22
88 | COc1ccc(CNc2ccc(C)cc2)cc1Br | 14
89 | O=C(O)CC12CC3CC(C1)CC(n1ncc(NCc4ccc5c(c4)OCO5)c(Cl)c1=O)(C3)C2 | 15
90 | O=C(Cn1cnc2c(nnn2Cc2ccc(Cl)cc2)c1=O)N1CCN(c2ccccc2)CC1 | 8
91 | Cc1cc(C)n2nc(SCC(=O)Nc3ccccc3)nc2n1 | 12
92 | CCc1nnc(NC(=O)c2cc(OC)c(OC)cc2[N+](=O)[O-])s1 | 0
93 | COc1cc(-c2nc(-c3ccccc3)c(-c3cc([N+](=O)[O-])ccc3C)[nH]2)cc(OC)c1OC | 9
94 | CC(=O)NCCCOc1ccc([N+](=O)[O-])cc1Cl | 3
95 | COC(=O)CSc1ccsc1C(=O)O | 8
96 | COC(=O)c1cccc(NC(=O)Nc2ccccc2OC)c1 | 13
97 | Cc1cccc(C)c1NC(=S)N(CCN1CCCCCC1)Cc1ccco1 | 2
98 | CC(C)N1CCN(CC#Cc2ccccc2)CC1CCO (configuration not stated) | -2
99 | CN(C)c1nc(=S)nc(NCc2ccccc2)[nH]1 | 19
100 | Cc1nc(Nc2cccc(O)c2)c2c3c(sc2n1)CCC3 | 13

More structures.
entry | compound | Biofilm kill mix
101 | Cc1ccc(NC(=O)/C=N/OCC(=O)NCc2ccccc2Cl)cc1 | 22
102 | CCCSc1nnc(CSc2ncccn2)n1C | 19
103 | COc1ccc(Br)cc1CNC(=O)C1CCN(S(=O)(=O)N2CCC(C)CC2)CC1 | 14
104 | O=C(CNC(=O)c1cccs1)NCC(=O)OCC(=O)c1ccc([N+](=O)[O-])cc1 | 20
105 | CN(C)CCCNC(CC(=O)Nc1cccc([N+](=O)[O-])c1)C(=O)O (configuration not stated) | 16
106 | COc1ccc(NC(=O)c2ccc(-c3ccccc3C(F)(F)F)o2)cc1 | 3
107 | CN(Cc1cn[nH]c1-c1ccc2c(c1)OCO2)C1CCOCC1 | 24
108 | O=C(Nc1cc(Cl)ccn1)C1(c2ccccc2)CC1(Cl)Cl (configuration not stated) | 17
109 | S=c1[nH]ccn1-c1ccc(Cl)cc1 | 9
110 | CC(Sc1nnnn1-c1ccccc1)C(=O)Nc1ccccc1-c1ccccc1 (configuration not stated) | 11
111 | O=[N+]([O-])c1ccccc1S(=O)(=O)N1CCN(CC2CC3C=CC2C3)CC1 (configuration not stated) | 15
112 | N#CCCn1cc(/C=N/NC(=O)c2ccncc2)c(-c2ccc(F)cc2)n1 | 6
113 | O=C(N/N=C/c1ccc(-c2cccc(C(F)(F)F)c2)o1)c1ccccc1O | -1
114 | CCOC(=O)c1cnc2c(cnn2C)c1NCCCn1ccnc1 | 1
115 | COc1ccc(OC)c(NC(=O)C(=O)NCCC2=CCCCC2)c1 | 3
116 | CC(C)n1cnc2c(N(C)c3cccc(Cl)c3)nc(N(CCO)CCO)nc21 | 14
117 | CCn1c(CN2C(=O)CSc3ccccc32)n[nH]c1=S | 17
118 | CC/C(O)=C1\C(=O)CCCC1=NCCc1nc2ccccc2[nH]1 | -2
119 | O=C(Cc1ccccc1)NNS(=O)(=O)c1ccc(F)cc1 | -3
120 | COc1ccc(/C=C/c2c([N+](=O)[O-])c(=O)n(C)c(=O)n2C)cc1 | 17
121 | Cc1cc[n+](C(C)C(=O)c2ccc(-c3ccccc3)cc2)cc1 (configuration not stated) | 19
122 | CCc1cccc(NS(=O)(=O)c2ccc3c(c2)CCC(=O)N3)c1 | 23
123 | CCOc1ccc(NC(=O)CSc2nc(N)c(-c3ccccc3)c(=O)[nH]2)cc1 | 13
124 | O=C(NC1CCCCC1)C(c1ccc(F)cc1)N(Cc1ccccc1)C(=O)CN1C(=O)c2ccccc2S1(=O)=O (configuration not stated) | 15
125 | O=C(CSc1nnc(-c2cccnc2)n1-c1ccccc1)Nc1ccccc1 | 9
126 | Cc1ccccc1-c1nnc(SCCC(=O)N2CCOCC2)o1 | 6
127 | Cc1oc2c(C)c(O)ccc2c(=O)c1N1C(=O)c2ccccc2C1=O | 8
